# Bioassay records as filed in PubChem BioAssay.
# ID4 binder – binders of human ID4 protein. P47928. small molecule microarray, Flag-ID4 binding, fluorescence F/B. calls only. hit rate 1.2% among 31,000. AID 624137;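 active = spot signal over background at p below 0.07 in all four prints; compounds were printed on slides so no solution concentration is given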;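 also: a binder raises fluorescence above local background on the spot; about 2 pmol printed per array spot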
# Target sequence (P47928 whole entry, looked up): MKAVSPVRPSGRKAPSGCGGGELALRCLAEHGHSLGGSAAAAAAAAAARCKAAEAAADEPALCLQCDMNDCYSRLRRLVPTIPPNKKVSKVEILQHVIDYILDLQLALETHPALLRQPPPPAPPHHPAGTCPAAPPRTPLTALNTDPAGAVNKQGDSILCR
# Calls only; i = inactive; + = active, no number. This is a subset. The share of hits here may be higher or lower than overall.
SMILES,ID4 binder
COCCOC(=O)N1C(=O)[C@@]2(c3cc(C#CCC(C(=O)OC)C(=O)OC)ccc31)[C@H](C(=O)N1CCN(c3ncccn3)CC1)[C@H]1C(=O)O[C@H](c3ccccc3)[C@H](c3ccccc3)N1[C@@H]2c1ccccc1OCCO,i
C[C@@H]1CN([C@@H](C)CO)C(=O)c2cc(C#CC3CC3)cnc2O[C@@H]1CN(C)C(=O)CC1CC1,i
C[C@@H]1CN([C@@H](C)CO)C(=O)c2cc(C#Cc3ccccc3)cnc2O[C@@H]1CN(C)C(=O)c1ccccc1,i
c1ccc2[nH]c(CSc3nc4ccccc4[nH]3)nc2c1,i
O=C(C[C@@H]1CC[C@H](NC(=O)c2cnccn2)[C@@H](CO)O1)NCc1ccccc1F,i
COc1cc(C2OC(c3ccc(O)c(OC)c3)C(C)(O)C2C)ccc1O (centres undefined),i
C[C@H]1CN([C@@H](C)CO)C(=O)c2cc(-c3cccc(F)c3)cnc2O[C@@H]1CN(C)C,i
C[C@@H]1CN([C@H](C)CO)C(=O)CCCn2nncc2CO[C@@H]1CN(C)Cc1ccc(Cl)c(Cl)c1,i
O=C(CSc1nccc(=O)[nH]1)Nc1ccc([N+](=O)[O-])cc1,i
C[C@@H]1CN([C@@H](C)CO)C(=O)c2cc(C#CCN(C)C)cnc2O[C@@H]1CN(C)Cc1ccc(F)cc1,i
Cc1cc(Cl)c(S(=O)(=O)N2CC(C)OC(C)C2)cc1OCC(N)=O (centres undefined),i
Cc1ccc(S(=O)(=O)c2nc(-c3ccccc3Cl)oc2NCC2CCCO2)cc1 (centres undefined),i
Cc1ccc(S(=O)(=O)NCC(=O)Nc2ccc(C)c(Cl)c2)cc1,i
Cc1cc(C)c(NC(=O)C(C)N(c2ccc(Oc3ccccc3)cc2)S(C)(=O)=O)c(C)c1 (centres undefined),i
Cc1nc2ccccn2c1-c1ccnc(SCC(=O)N(c2ccccc2)C2CCCCC2)n1,i
CC(C)(Oc1ccc(Cl)cc1)C(=O)NCc1ccco1,i
O=C(O)CCc1ccc(-c2ccccc2)n1-c1ccc([N+](=O)[O-])cc1,i
COCC#Cc1ccc2c(c1)O[C@H](CN(C)Cc1ccccc1)[C@@H](C)CN([C@H](C)CO)S2(=O)=O,i
CCc1ccc(C(Nc2cc(C)ccn2)c2ccc3ccc(C)nc3c2O)cc1 (centres undefined),i
COC(=O)C[C@@H]1C=C[C@@H](NC(=O)Nc2ccc(C(F)(F)F)cc2)[C@H](CO)O1,i
Cc1ccc(-n2c(Cn3ncc4ccccc4c3=O)n[nH]c2=S)c(Br)c1,i
COc1ccc(CN2C(=O)c3cccc4cccc(c34)C2=O)cc1S(=O)(=O)N1CCOCC1,i
COC(=O)c1ccccc1NC(=O)Cn1cnc2sc(C)c(C)c2c1=O,i
COc1cccc(NC(=O)N(C)C[C@H]2Oc3ncc(C#Cc4ccncc4)cc3C(=O)N([C@H](C)CO)C[C@@H]2C)c1,i
Cc1ccc(S(=O)(=O)N(C)C[C@H]2Oc3ncc(Br)cc3C(=O)N([C@@H](C)CO)C[C@H]2C)cc1,i

# Arranged by molar mass (largest number first): part of the list above
SMILES,ID4 binder
Cc1ccc(S(=O)(=O)N(C)C[C@H]2Oc3ncc(Br)cc3C(=O)N([C@@H](C)CO)C[C@H]2C)cc1,i
C[C@@H]1CN([C@H](C)CO)C(=O)CCCn2nncc2CO[C@@H]1CN(C)Cc1ccc(Cl)c(Cl)c1,i
COCC#Cc1ccc2c(c1)O[C@H](CN(C)Cc1ccccc1)[C@@H](C)CN([C@H](C)CO)S2(=O)=O,i
COc1ccc(CN2C(=O)c3cccc4cccc(c34)C2=O)cc1S(=O)(=O)N1CCOCC1,i
Cc1cc(C)c(NC(=O)C(C)N(c2ccc(Oc3ccccc3)cc2)S(C)(=O)=O)c(C)c1 (centres undefined),i
C[C@@H]1CN([C@@H](C)CO)C(=O)c2cc(C#CC3CC3)cnc2O[C@@H]1CN(C)C(=O)CC1CC1,i
Cc1ccc(S(=O)(=O)c2nc(-c3ccccc3Cl)oc2NCC2CCCO2)cc1 (centres undefined),i
Cc1ccc(-n2c(Cn3ncc4ccccc4c3=O)n[nH]c2=S)c(Br)c1,i
C[C@H]1CN([C@@H](C)CO)C(=O)c2cc(-c3cccc(F)c3)cnc2O[C@@H]1CN(C)C,i
CCc1ccc(C(Nc2cc(C)ccn2)c2ccc3ccc(C)nc3c2O)cc1 (centres undefined),i
O=C(CSc1nccc(=O)[nH]1)Nc1ccc([N+](=O)[O-])cc1,i
CC(C)(Oc1ccc(Cl)cc1)C(=O)NCc1ccco1,i
c1ccc2[nH]c(CSc3nc4ccccc4[nH]3)nc2c1,i

# New compounds follow.
SMILES,ID4 binder
CN(C)c1ccc2c(c1)[C@@H]1C[C@@H](CC(=O)O)O[C@@H](CO)[C@@H]1O2,i
C[C@H](CO)N1C[C@H](C)[C@@H](CN(C)C(=O)Cc2ccccc2)Oc2ncc(C3=CCCCC3)cc2C1=O,i
COC(=O)C[C@@H]1C[C@H]2c3cc(NC(=O)C4CCOCC4)ccc3O[C@H]2[C@H](CO)O1,i
O=C(C[C@@H]1CC[C@H](NC(=O)C2CC2)[C@@H](CO)O1)NC1CCC1,i
C[C@H]1CN([C@@H](C)CO)S(=O)(=O)c2ccc(C#CC3CCCC3)cc2O[C@@H]1CN(C)C(=O)Nc1cc(F)ccc1F,i
C[C@@H]1CN([C@@H](C)CO)C(=O)c2cc(C#Cc3ccncc3)cnc2O[C@H]1CN(C)C(=O)CN(C)C,+
O=C(NCCC(c1ccc(F)cc1)c1ccco1)c1cccs1 (centres undefined),i
C[C@@H]1CN([C@H](C)CO)S(=O)(=O)c2ccc(C#Cc3ccc(F)cc3)cc2O[C@H]1CN(C)C,i
C[C@H](CO)N1C[C@H](C)[C@@H](CN(C)C(=O)CCC(F)(F)F)OCc2ccccc2-c2ccccc2C1=O,i
Cc1cc(Cl)ccc1NC(=O)CN(c1ccc(Cl)cc1)S(C)(=O)=O,i
CC(C)C#Cc1cnc2c(c1)C(=O)N([C@@H](C)CO)C[C@@H](C)[C@H](CN(C)C(=O)c1ccc3c(c1)OCO3)O2,i
O=C(Nc1ccc(F)cc1)N[C@H]1C=C[C@H](CC(=O)N2CCCCC2)O[C@@H]1CO,i
Cc1nn(C)c(C)c1CNC(=O)c1cnn2c1NC(c1ccc(Br)cc1)CC2C(F)(F)F (centres undefined),i
CCCN(C)C[C@@H]1Oc2ncc(-c3ccccc3OC)cc2C(=O)N([C@@H](C)CO)C[C@@H]1C,i
COc1ccc(S(=O)(=O)N[C@@H]2C=C[C@@H](CC(=O)NCCc3ccccc3)O[C@H]2CO)cc1,i
Cc1ccc(-c2nc3ncccc3o2)cc1NC(=O)COc1cc(Cl)c(Cl)cc1Cl,i
CN=c1scc(C)n1NC(=O)Nc1ccc(Cl)cc1,i
Cc1ccc(NC(=O)CC2NC3CCCCC3NC2=O)cc1C (centres undefined),i
COc1ccc(-c2cc(=O)c3cc(OC)ccc3o2)cc1,i
COC(=O)c1cc(OC)c(OC)cc1NC(=O)C(C)Oc1ccc(Br)cc1 (centres undefined),i
O=C(c1noc2c1CCCC2)N(C1CCCCC1)C1CCCCC1,i
C[C@@H]1CN([C@H](C)CO)C(=O)c2cc(C3=CCCC3)cnc2O[C@@H]1CN(C)Cc1ccccc1F,i
CCCC#Cc1cnc2c(c1)C(=O)N([C@@H](C)CO)C[C@H](C)[C@H](CN(C)Cc1cccnc1)O2,i
Cn1c(SCc2nc3ccccc3s2)nnc1-c1cccnc1,i
COCCNC(=O)C[C@H]1C[C@H]2c3cc(NC(=O)CC4CC4)ccc3O[C@H]2[C@H](CO)O1,i

# (cont.)
SMILES,ID4 binder
COc1ccc(S(=O)(=O)N(C)CC(=O)Nc2cccc(C)c2C)cc1Cl,i
O=C(CSc1nc(-c2ccccc2)cs1)Nc1ccc(Cl)cc1Cl,i
C[C@@H]1CN([C@@H](C)CO)C(=O)c2cc(C3=CCCCC3)cnc2O[C@@H]1CN(C)C(=O)c1cccc(F)c1,i
Cc1cc(=O)[nH]c(SCCOc2ccc(F)cc2)n1,i
OC1(c2ccc(Cl)cc2)CCN(Cc2c[nH]c3ccccc23)CC1,i
Cc1ccc2ccc(C(Nc3ccccn3)c3cccc([N+](=O)[O-])c3)c(O)c2n1 (centres undefined),i
C[C@H]1CN([C@@H](C)CO)C(=O)c2cccc(N(C)C)c2O[C@@H]1CN(C)C(=O)Nc1ccc(F)cc1,i
CC(=O)N[C@H]1C=C[C@@H](CC(=O)NCc2ccc(Cl)cc2)O[C@@H]1CO,i
CC(=O)Nc1ccc(-c2nnc(SCC(=O)Nc3cccc(C(F)(F)F)c3)n2C)cc1,i
O=C(C[C@H]1C=C[C@H](NC(=O)c2cccc(F)c2)[C@@H](CO)O1)NCc1ccccc1,i
CSc1cccc(NC(=O)C(C)N(c2ccc(C)c(C)c2)S(C)(=O)=O)c1 (centres undefined),i
COCC#Cc1cnc2c(c1)C(=O)N([C@@H](C)CO)C[C@H](C)[C@@H](CN(C)Cc1ccccc1F)O2,i
CCOC(=O)CSc1nc(NC#N)nc(N(CC)CC)n1,i
Cc1[nH]n(-c2ccccc2)c(=S)c1C=NC(C)Cc1ccccc1 (centres undefined),i
COC(=O)c1ccccc1NC(=O)C(C)Oc1ccc2c(C)cc(=O)oc2c1 (centres undefined),i
Cc1ccc(-c2nc(S(=O)(=O)c3ccc(Cl)cc3)c(SCC(N)=O)o2)cc1,i
C[C@H](CO)N1C[C@H](C)[C@H](CN(C)CC2CC2)Oc2cc(/C=C/c3ccccc3)ccc2S1(=O)=O,i
COc1cc(OC)c2c(OC)c(-c3ccc4c(c3)OCO4)c(=O)oc2c1,i
CCOc1cc(C)c(Cl)cc1S(=O)(=O)NC1CC(C)(C)NC(C)(C)C1,i
CO[C@H](CN(C)Cc1ccc(-c2ccccn2)cc1)[C@H](C)CN(C(=O)Nc1ccc(F)cc1)[C@H](C)CO,i
CNC[C@H]1Oc2cc(C#CCC3CCCC3)ccc2S(=O)(=O)N([C@H](C)CO)C[C@H]1C,i
O=C(CSc1nnc(-c2ccncc2)n1-c1ccc(F)cc1)c1ccc(Cl)cc1,i
CC(C)(C)c1ccc(C(=O)Nc2ccc(NC(=O)COc3ccc([N+](=O)[O-])cc3)cc2)cc1,i
COC(=O)c1ccccc1NC(=O)CN(c1ccc(I)cc1)S(C)(=O)=O,i
O=C(Cc1ccccc1)N[C@@H]1CC[C@@H](CC(=O)N2CCCCC2)O[C@@H]1CO,i

# New compounds follow
SMILES,ID4 binder
C[C@H]1CN([C@@H](C)CO)C(=O)c2cc(C#CC3CC3)cnc2O[C@H]1CN(C)C(=O)CC1CC1,i
NC(=O)C1(N2CCCCC2)CCN(CC(=O)Nc2ccc(F)cc2)CC1,i
C[C@H](CO)N1C[C@H](C)[C@@H](CN(C)Cc2cccc(F)c2)OCc2ccccc2-c2ccccc2C1=O,i
CC(C)CC#Cc1ccc2c(c1)O[C@H](CN(C)C)[C@H](C)CN([C@@H](C)CO)S2(=O)=O,i
Cc1ccc(S(=O)(=O)N(C)CC(=O)Nc2cc(Cl)ccc2Oc2ccccc2)cc1,i
Cc1ccc2oc(-c3cccc(NC(=O)COc4ccc(Br)cc4)c3C)nc2c1,i
O=C(CSc1nnnn1-c1ccccc1)c1cc2ccccc2oc1=O,i
CN(CC(=O)Nc1ccc(Oc2ccccc2)cc1)S(=O)(=O)c1ccc2ccccc2c1,i
C[C@@H]1CN([C@@H](C)CO)S(=O)(=O)c2ccc(-c3cncnc3)cc2O[C@H]1CN(C)C(=O)c1ccc2c(c1)OCO2,i
CC(Oc1ccc(Cl)cc1Cl)C(=O)Nc1cc(-c2nc3ccccc3o2)ccc1Cl (centres undefined),i
CN1N=C(c2coc3ccccc23)CC1(O)C(F)(F)F (centres undefined),i
CCn1c(SCC(N)=O)nnc1-c1ccncc1,i
COc1cccc(C#Cc2cnc3c(c2)C(=O)N([C@@H](C)CO)C[C@@H](C)[C@@H](CN(C)C)O3)c1,i
COc1ccc([Si](C)(C)[C@@H]2[C@@H](CCn3cc([C@H](O)c4ccccc4)nn3)O[C@]3(C(=O)N(Cc4ccc(N5CCOC5=O)cc4)c4ccccc43)[C@H]2C)cc1,i
COc1ccc(Cl)cc1NC(=O)NCc1cccnc1,i
O=C(Cn1c2ccccc2n2ncnc12)c1ccc(-c2ccccc2)cc1,i
Cc1ccc(CN(C)C[C@H]2OCc3cnnn3CCCC(=O)N([C@@H](C)CO)C[C@H]2C)cc1,i
c1ccc(Cc2nnc3sc(C4COc5ccccc5O4)nn23)cc1 (centres undefined),i
CCCc1cn(CC[C@H]2CC[C@@H](NC(=O)C3CCC3)[C@@H](CO)O2)nn1,i
Cn1c(SCCCN2C(=O)c3cccc4cccc(c34)C2=O)nnc1-c1cccs1,i
CS(=O)(=O)N(CC(=O)Nc1cccc([N+](=O)[O-])c1)C1CCCCC1,i
Cc1ccc(S(=O)(=O)N(CC(=O)O)c2cc(Cl)ccc2C)cc1,i
Cc1ccc(S(=O)(=O)N[C@H]2CC[C@H](CC(=O)NCCc3ccncc3)O[C@H]2CO)cc1,i
CC/C=C/c1ccc(C)cc1CCCCCC(=O)O,i
CCN(CC(=O)Nc1ccc(F)cc1F)S(=O)(=O)c1ccc2ccccc2c1,i

# Further records follow:
SMILES,ID4 binder
N#Cc1c(NC(=O)Cn2cnc3sc(-c4ccccc4)cc3c2=O)sc2c1CCC2,i
C=C1C(=O)O[C@@H]2C3C(=C(C)[C@@H](O)[C@@H](OC(=O)/C(=C/C)COC(C)=O)[C@@H]12)C(=O)[C@H]1O[C@@]31C (some centres undefined),i
O=C(C[C@H]1CC[C@H](NC(=O)c2cccc(F)c2)[C@H](CO)O1)NCc1ccccc1,i
Cc1ccc(S(=O)(=O)NC(C(=O)O)C(C)C)cc1 (centres undefined),i
Clc1ccc(-n2c(SCc3nc4ccccc4s3)nnc2-c2cccs2)cc1,i
O=C(CSc1nc2sc3c(c2c(=O)n1Cc1ccco1)CCC3)N1CCc2ccccc21,i
CN(C)c1ccc2c(c1)[C@@H]1C[C@H](CC(=O)NCC3CC3)O[C@@H](CO)[C@@H]1O2,i
CCOC(=O)CSc1nnc(-c2ccc(Cl)cc2)n1-c1ccccc1,i
O=C(CN1C(=O)c2ccccc2S1(=O)=O)Nc1ccccc1C(=O)N1CCCC1,i
